# Screening results (PubChem BioAssay)
# Vaccinia inh: Vaccinia orthopox stage-specific inhibition; Vaccinia-infected cells, mCherry/Venus stage reporter fluorescence; hits give low values; some inactives read as strong as hits; activity change (mCherry), % (no concentration beside the values); hit rate 0.01% among 89,000;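 active = mCherry past -33% and 40 or more points under the early reporter, replicates agreeing; inconclusive = past -33% without that gap or agreement; tested in A549 cells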;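 also: scaled between vehicle wells and reference inhibitor wells; 23 nL library stock went into each well; one replicate is shown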
# Vaccinia inh Venus: further read-out of Vaccinia inh, marked with its call; activity change (Venus), %; measured here: Venus reporter, other viral stage;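 negative = less Venus signal; first of two replicates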
# The depositor's hits bear a star; u = inconclusive; x = no result given. This is a subset (hit frequency here may not be typical).
molecule	Vaccinia inh	Vaccinia inh Venus
C[C@@H]1CN([C@@H](C)CO)S(=O)(=O)c2ccc(-c3cccc(C(=O)N(C)C)c3)cc2O[C@@H]1CN(C)C(=O)Cc1ccccn1	7	4
C[C@@H]1CN([C@H](C)CO)C(=O)c2cccc(NS(C)(=O)=O)c2O[C@H]1CN(C)CC1CC1	16	7
COc1ccc(S(=O)(=O)N(C)C[C@@H]2Oc3ccc(NC(=O)CCC(F)(F)F)cc3C(=O)N([C@H](C)CO)C[C@@H]2C)cc1	12	-1
CC(C)NC(=O)N(C)C[C@H]1Oc2c(NC(=O)CCCCCC(=O)Nc3ccccc3N)cccc2C(=O)N([C@@H](C)CO)C[C@@H]1C	24	7
COc1ccc(S(=O)(=O)N(C)C[C@@H]2Oc3ccc(NC(=O)C4CC4)cc3CC(=O)N([C@@H](C)CO)C[C@@H]2C)cc1	4	10
CO[C@H]1CN(C)C(=O)c2cc(NC(=O)c3ccc4c(c3)OCO4)ccc2OC[C@H](C)N(CCC(F)(F)F)C[C@@H]1C	-14	-1
C[C@@H]1CN([C@H](C)CO)S(=O)(=O)c2ccc(C3=CCCCC3)cc2O[C@@H]1CN(C)C(=O)CC1CC1	-23	-25
C[C@H](CO)N1C[C@H](C)[C@@H](CN(C)C(=O)Cc2ccccc2)OCCCC[C@H](C)Oc2ccc(N(C)C)cc2C1=O	-11	-9
CCC(=O)N1CC2(CCN(Cc3cccnc3)CC2)c2c(n(C)c3cc(OC)ccc23)[C@@H]1CO	2	-8
C[C@H]1CN([C@@H](C)CO)S(=O)(=O)c2ccc(-c3ccc(C(=O)N(C)C)cc3)cc2O[C@@H]1CN(C)C	1	-9
Cc1ccc(S(=O)(=O)N(C)C[C@H]2OCc3cnnn3CCCC(=O)N([C@@H](C)CO)C[C@H]2C)cc1	1	-2
C[C@@H]1CN([C@@H](C)CO)C(=O)Cc2cc(NC(=O)Cn3cnnn3)ccc2O[C@@H]1CN(C)CC1CCCCC1	16	4
C[C@H]1CN([C@@H](C)CO)C(=O)c2cccc(NS(=O)(=O)c3ccccc3)c2O[C@@H]1CN(C)C(=O)Nc1ccc(C(F)(F)F)cc1	11	8
C/C=C/c1cnc2c(c1)C(=O)N([C@H](C)CO)C[C@@H](C)[C@@H](CN(C)Cc1cccc(C(=O)O)c1)O2	-5	4
Cc1noc(C)c1NC(=O)N[C@H]1CC[C@H](CC(=O)NCCCN(C)C)O[C@@H]1CO	-2	-2

# Part of the list above, with two lines to a compound:
# Order of results – Vaccinia inh	Vaccinia inh Venus
COc1ccc(S(=O)(=O)N(C)C[C@@H]2Oc3ccc(NC(=O)C4CC4)cc3CC(=O)N([C@@H](C)CO)C[C@@H]2C)cc1
    4	10
CO[C@H]1CN(C)C(=O)c2cc(NC(=O)c3ccc4c(c3)OCO4)ccc2OC[C@H](C)N(CCC(F)(F)F)C[C@@H]1C
    -14	-1
C[C@@H]1CN([C@H](C)CO)S(=O)(=O)c2ccc(C3=CCCCC3)cc2O[C@@H]1CN(C)C(=O)CC1CC1
    -23	-25
C[C@H](CO)N1C[C@H](C)[C@@H](CN(C)C(=O)Cc2ccccc2)OCCCC[C@H](C)Oc2ccc(N(C)C)cc2C1=O
    -11	-9
CCC(=O)N1CC2(CCN(Cc3cccnc3)CC2)c2c(n(C)c3cc(OC)ccc23)[C@@H]1CO
    2	-8
C[C@H]1CN([C@@H](C)CO)S(=O)(=O)c2ccc(-c3ccc(C(=O)N(C)C)cc3)cc2O[C@@H]1CN(C)C
    1	-9
Cc1ccc(S(=O)(=O)N(C)C[C@H]2OCc3cnnn3CCCC(=O)N([C@@H](C)CO)C[C@H]2C)cc1
    1	-2
C[C@@H]1CN([C@@H](C)CO)C(=O)Cc2cc(NC(=O)Cn3cnnn3)ccc2O[C@@H]1CN(C)CC1CCCCC1
    16	4
C[C@H]1CN([C@@H](C)CO)C(=O)c2cccc(NS(=O)(=O)c3ccccc3)c2O[C@@H]1CN(C)C(=O)Nc1ccc(C(F)(F)F)cc1
    11	8
C/C=C/c1cnc2c(c1)C(=O)N([C@H](C)CO)C[C@@H](C)[C@@H](CN(C)Cc1cccc(C(=O)O)c1)O2
    -5	4
Cc1noc(C)c1NC(=O)N[C@H]1CC[C@H](CC(=O)NCCCN(C)C)O[C@@H]1CO
    -2	-2

# (next part)
molecule	Vaccinia inh	Vaccinia inh Venus
O=C(C[C@@H]1CC[C@H]2[C@@H](COC[C@H](O)CN2Cc2ccc(Cl)cc2)O1)NCCc1ccccc1	-31	-16
O=C(C[C@@H]1CC[C@H](NC(=O)Nc2ccccc2F)[C@@H](CO)O1)NCc1ccccc1	-4	-2
CN(C)C(=O)C[C@@H]1CC[C@@H]2[C@H](COC[C@@H](O)CN2CC2CCOCC2)O1	6	1
C[C@H](CO)N1C[C@H](C)[C@H](CN(C)S(=O)(=O)c2cccs2)Oc2ccc(NC(=O)NC3CCCCC3)cc2CC1=O	-4	-6
COc1ccccc1-c1ccccc1[C@@H]1[C@@H](CO)N(C(=O)CN(C)C)[C@H]1C#N	7	9
C[C@@H]1CN([C@H](C)CO)C(=O)c2cc(NC(=O)NC3CCCCC3)ccc2O[C@@H](C)CCCCO[C@@H]1CN(C)Cc1ccncc1	11	1
CC=Cc1ccc2n(c1=O)C[C@@H]1[C@@H](CO)[C@H](C(=O)N[C@H](C)c3ccccc3)[C@H]2N1Cc1ccccc1 (mixture of isomers)	18	9
CCCNC(=O)[C@@H]1[C@@H](CO)[C@@H]2Cn3c(ccc(-c4cccnc4)c3=O)[C@H]1N2C(=O)Nc1ccccc1	14	10
CN(C)C(=O)c1ccc(-c2ccccc2[C@@H]2[C@@H](CO)N(C(=O)C3CC3)[C@H]2C#N)cc1	11	-1
CC(=O)N[C@H]1CC[C@H](CCNC(=O)C2CCCCC2)O[C@@H]1CO	8	8
Cc1ccc(S(=O)(=O)N(C)C[C@H]2Oc3c(NC(=O)C4CCOCC4)cccc3C(=O)N([C@H](C)CO)C[C@H]2C)cc1	4	1
O=C(Cc1ccccn1)N[C@H]1C=C[C@H](CC(=O)N2CCCCC2)O[C@H]1CO	-13	-7
CC(C)NC(=O)N1[C@H](C#N)[C@@H](c2ccc(-c3ccc(F)cc3)cc2)[C@H]1CO	-17	-15
COCCNC(=O)C[C@@H]1C[C@H]2c3cc(NC(=O)COC)ccc3O[C@H]2[C@H](CO)O1	11	6
C[C@H]1CN([C@@H](C)CO)C(=O)c2cccc(NS(C)(=O)=O)c2O[C@H]1CN(C)Cc1ccc(Cl)c(Cl)c1	5	-1
C[C@H](CO)N1C[C@H](C)[C@H](CN(C)S(=O)(=O)c2ccc(F)cc2)Oc2ncc(C#CCN(C)C)cc2C1=O	1	-1
C[C@@H]1CN([C@@H](C)CO)C(=O)c2cc(C#Cc3cccnc3)cnc2O[C@@H]1CN(C)C(=O)CC1CC1	-2	3
COc1cccc(-c2cccc(-c3nc(C(=O)O)cc4c3[C@H](CCO)N(S(=O)C(C)(C)C)C4)c2)c1 (some centres undefined)	11	32
Cc1ccc(S(=O)(=O)N[C@H]2C=C[C@H](CC(=O)NC3CCCCC3)O[C@H]2CO)cc1	5	11
C[C@H]1CN([C@@H](C)CO)C(=O)c2cc(C#CC3CC3)cnc2O[C@@H]1CN(C)C(=O)CC1CC1	9	6
C[C@@H]1CN([C@H](C)CO)C(=O)Cc2cc(NC(=O)CCC(F)(F)F)ccc2O[C@@H]1CN(C)Cc1ccccc1	-5	2
O=C(C[C@H]1CC[C@@H](NC(=O)Nc2cc(F)ccc2F)[C@H](CO)O1)NCCCN1CCOCC1	8	11
O=C(C[C@@H]1C[C@H]2c3cc(NC(=O)C4CCC4)ccc3O[C@H]2[C@H](CO)O1)NCc1ccccn1	10	3
Cc1cccc(S(=O)(=O)N2CCCCN3[C@H](CO)[C@H](c4ccc(C#CC(C)C)cc4)[C@@H]3C2)c1	-20	-20
C[C@@H]1CCCCO[C@H](CN(C)C(=O)CCC(F)(F)F)[C@H](C)CN([C@@H](C)CO)C(=O)c2cc(NS(=O)(=O)c3cn(C)cn3)ccc2O1	8	7
O=C(C[C@H]1C[C@@H]2c3cc(NC(=O)C4CCOCC4)ccc3O[C@@H]2[C@H](CO)O1)NCc1ccccc1	24	24
C[C@@H]1CN([C@H](C)CO)S(=O)(=O)c2ccc(C#CC3CCCC3)cc2O[C@H]1CN(C)C(=O)Cc1ccccc1	u	-19
O=C(Nc1nccs1)[C@H]1[C@H](CO)[C@H]2Cn3c(ccc(-c4ccccc4)c3=O)[C@H]2N1CC1CCCC1	-22	-10
O=C(C1CCOCC1)N1CC(=O)N2[C@H](CO)[C@@H](c3ccc(-c4ccccc4F)cc3)[C@H]2C1	-28	-20
C[C@@H]1CN([C@H](C)CO)C(=O)c2cc(NC(=O)CCN3CCOCC3)ccc2O[C@H]1CN(C)C(=O)Nc1ccccc1	16	9
O=C(C[C@H]1C=C[C@H](NC(=O)C2CC2)[C@@H](CO)O1)NC1CCC1	3	6
COc1ccc(S(=O)(=O)Nc2ccc3c(c2)C(=O)N([C@@H](C)CO)C[C@@H](C)[C@@H](CN(C)C(=O)Nc2ccc4c(c2)OCO4)OCCCC[C@H](C)O3)cc1	-3	4
CC(C)NC(=O)N(C)C[C@H]1Oc2cc(C#CC3CC3)ccc2S(=O)(=O)N([C@@H](C)CO)C[C@@H]1C	9	0
C[C@@H]1CN([C@@H](C)CO)C(=O)c2cc(-c3cccc(C#N)c3)cnc2O[C@H]1CN(C)C(=O)C1CCC1	30	12
C[C@@H]1CN([C@H](C)CO)C(=O)c2cc(/C=C/c3ccccc3)cnc2O[C@H]1CN(C)C(=O)c1ccc2c(c1)OCO2	u	x
COc1ccccc1NC(=O)N1CC(=O)N2[C@H](CO)[C@@H](c3ccc(-c4ccc(F)cc4)cc3)[C@@H]2C1	u	x
C[C@@H]1CN([C@H](C)CO)C(=O)c2cc(C3=CCCCC3)cnc2O[C@@H]1CN(C)Cc1cccc(F)c1	-15	-15
C[C@@H]1CN([C@@H](C)CO)C(=O)c2cc(C#CC3CC3)cnc2O[C@@H]1CN(C)Cc1ccccc1C(=O)O	13	2
C[C@H](CO)N1C[C@H](C)[C@H](CN(C)C(=O)NC2CCCCC2)OCCCC[C@H](C)Oc2ccc(NC(=O)Cc3ccccc3)cc2C1=O	u	x
O=C(Nc1ccccc1)N1CC(=O)N2[C@H](CO)[C@H](c3ccc(C#Cc4cccnc4)cc3)[C@@H]2C1	-21	-17
C[C@H]1CN([C@@H](C)CO)C(=O)c2ccccc2-c2ccccc2CO[C@H]1CN(C)S(=O)(=O)c1cccs1	-11	-15
Cc1ccc(-c2cnc3c(c2)C(=O)N([C@H](C)CO)C[C@H](C)[C@H](CN(C)CC2CCCC2)O3)cc1	-25	-19
C[C@@H]1CN([C@H](C)CO)C(=O)c2cccc(NC(=O)c3ccc(-c4nccs4)cc3)c2O[C@@H]1CN(C)C(=O)Nc1cccc2ccccc12	7	1
Cc1noc(C)c1NC(=O)Nc1ccc2c(c1)C(=O)N([C@H](C)CO)C[C@@H](C)[C@H](CN(C)CC1CC1)OCCCC[C@@H](C)O2	35	3
CO[C@@H]1CN(C)C(=O)c2ccc(NC(=O)c3ccc(F)cc3)cc2OC[C@H](C)N(C(=O)c2ccc(F)cc2)C[C@H]1C	-3	11
C[C@@H]1CN([C@H](C)CO)C(=O)c2cc(NC(=O)c3ccncc3)ccc2O[C@@H]1CN(C)S(=O)(=O)c1cccs1	18	11
C[C@H]1CN([C@@H](C)CO)C(=O)CCCn2nncc2CO[C@H]1CN(C)Cc1ccc(Oc2ccccc2)cc1	u	x
CCCN1[C@H](C(=O)N(C)C)[C@@H](CO)[C@@H]2Cn3c(ccc(-c4ccc(OC)cc4)c3=O)[C@@H]21	0	5
CCC(=O)Nc1ccc2c(c1)C(=O)N(C)C[C@@H](OC)[C@H](C)CN(C(=O)Cc1ccccn1)[C@@H](C)CO2	16	22
CO[C@@H]1CN(C)C(=O)c2cc(NS(=O)(=O)c3ccc(C)cc3)ccc2OC[C@@H](C)N(Cc2nccs2)C[C@H]1C	-6	-10
COc1ccc(C[C@H]2CCn3cc(nn3)COC[C@H](c3ccccc3)NC2=O)cc1	10	16
Cc1noc(C)c1NC(=O)N(C)C[C@H]1Oc2c(NS(C)(=O)=O)cccc2C(=O)N([C@@H](C)CO)C[C@@H]1C	21	10
Cc1ccc(S(=O)(=O)Nc2ccc3c(c2)C(=O)N([C@@H](C)CO)C[C@H](C)[C@@H](CN(C)S(C)(=O)=O)OCCCC[C@H](C)O3)cc1	24	11
C/C=C/c1cnc2c(c1)C(=O)N([C@@H](C)CO)C[C@@H](C)[C@H](CN(C)C(=O)Nc1ccc(C(F)(F)F)cc1)O2	-6	-7
C[C@H](CO)N1C[C@H](C)[C@@H](CN(C)Cc2cccc(C(=O)O)c2)Oc2ncc(C#C[C@@H](C)O)cc2C1=O	6	5
CCCNC(=O)N1C[C@@H](C)[C@@H](OC)CN(C)C(=O)c2cc(NC(=O)CCC)ccc2OC[C@@H]1C	12	13
COc1ccc(-c2cn(CC[C@H]3CC[C@H](NC(=O)CCN4CCCCC4)[C@@H](CO)O3)nn2)cc1	6	6
COc1ccc(NC(=O)Nc2cccc3c2O[C@H](CN(C)C(=O)NC2CCCCC2)[C@@H](C)CN([C@H](C)CO)C3=O)cc1	2	6
C[C@H]1CCCCO[C@H](CN(C)C(=O)Nc2ccc3c(c2)OCO3)[C@@H](C)CN([C@@H](C)CO)C(=O)c2cc(N(C)C)ccc2O1	-10	-3
COc1ccc2c3c(n(C)c2c1)[C@@H](CO)N(C(=O)C1CCOCC1)CC31CN(C)C1	20	10
O=C1CN(Cc2ccc(F)cc2)C[C@@H]2[C@H](c3ccc(-c4ccccc4F)cc3)[C@@H](CO)N12	-4	-2
